# ugtP null kill: compounds lethal to S. aureus RN4220 ugtP deletion mutant; 0.54% of 330,000 active; OD600 growth, 16 h; some inactives read as strong as hits; growth inhibition, % (no concentration beside the values);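 active = z-score under -3 and OD600 up to 0.15 on both plates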;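 also: plate controls were untreated wells for no effect and antibiotic for full effect; wells of about 80 µL received 100 nL stock; the first replicate is given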
# BJeLR viability: kills HRASV12-expressing BJeLR cells; BJeLR (HRASV12) viability, CellTiter-Glo ATP luminescence, 48 h; reference of the scale not given here; inhibition, % (test concentration not listed); 0.17% of 300,000 active;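 active = replicate mean above 50%; inconclusive = above 50% but judged a plate artefact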;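 also: 50 nL library stock added to about 25 µL; numbers are from one replicate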
# PrP 5UTR inh: inhibition of PrP 5' UTR reporter expression | cell-based PrP 5' UTR mRNA reporter, plate reader | inhibition, % (concentration not given with the values) | 0.35% of 340,000 active;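 active = every replicate at 50% or more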;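 also: 0 = median of the neutral control wells; tested in H4 reporter cells; numbers are from one replicate; inactives centre near -14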
# Bead autofluor: counter-screen for toxin protease inhibitors: compound fluorescence; compound autofluorescence counterscreen, microsphere flow cytometry; hits give high values; fluorescence intensity (test concentration not listed); 3.1% of 360,000 active; AID 624483;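 active = at least 3 SD above the mean of all compounds, about 16000 in these data; inconclusive = too few beads counted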;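 also: 100 nL of 1 mM stock went into each well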
# Mtb hypoxia rep: Mtb hypoxia fluorescent reporter inhibition | M. tuberculosis hypoxia-regulated fluorescent reporter, fluorescence | fluorescence inhibition, % (no concentration beside the values) | 0.1% of 300,000 active;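 active = 35 to 45% if threefold the growth effect, above 45% if 1.5-fold the growth effect; inactive = the rest, general growth blockers included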;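 also: wells of about 50 µL received 100 nL stock; 0% = vehicle wells and 100% = reference inhibitor wells; whole bacteria with a GFP reporter of the hypoxia response; strong numbers were not always called active; many hits fall short of the cut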
# RN4220 kill: kills Staphylococcus aureus RN4220 | S. aureus RN4220 growth, OD600, 16 h | inhibition, % (concentration not given with the values) | 0.33% of 330,000 active | AID 1259311;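 active = z-score of -3 or lower and OD600 up to 0.18 on both plates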;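 also: plate controls were untreated cells for no effect and reference antibiotic for full effect; stock transfer was 100 nL into about 80 µL; one replicate is shown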
# Mtb hypoxia rep growth: also measured in Mtb hypoxia rep; calls as there; growth inhibition, %; measured here: M. tuberculosis growth (absorbance);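 0% = vehicle and 100% = reference antibiotic; read after six days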
# The depositor's hits bear a star; ? = inconclusive; . = not tested or not shown.
SMILES	ugtP null kill	BJeLR viability	PrP 5UTR inh	Bead autofluor	Mtb hypoxia rep	Mtb hypoxia rep growth	RN4220 kill
CCn1c(Cc2ccccc2)nnc1SCC(=O)Nc1ccc2c(c1)OCO2	-5	5	-21	2655	5	8	-9.3
COc1ccc(-c2nc(CSCC(=O)NC3CC3)c(C)o2)cc1OC	4	5	-8	5540	12	5	1.7
CCCNC(=O)c1cccc(COc2ccccc2OC)c1	6	4	-59	2601	16	12	4.3
S=C(NC1CCCC1)NC1CC1	3	0	-13	1873	2	7	3.0
O=C(COC(=O)[C@@H]1CCCN1C(=O)c1cccs1)Nc1ccc(F)cc1[N+](=O)[O-]	4	9	-9	3892	16	7	3.7
CCn1c(=S)sc2c(=O)[nH]c(C)nc21	-4	-9	-23	8819	6	4	7.6
Fc1cccc(Cl)c1CSc1nnnn1-c1ccc2c(c1)OCO2	62	13	-14	8620	0	1	1.7
COc1ccc(-n2cccc2C=O)cc1	-1	-2	-12	2784	-3	14	3.6
O=C1NC(=O)N(CCC2=CCCCC2)C(=O)/C1=C\c1cccs1	2	-2	-9	2519	3	4	1.6
Cc1cc(C)c(S(=O)(=O)N2CCCOC2CNC(=O)C(=O)NCc2ccccn2)c(C)c1 (centres undefined)	-4	0	-6	2601	-5	10	-0.7
O=C(NCc1n[nH]c(=S)n1-c1ccc(Cl)c(Cl)c1)c1ccco1	-4	-12	1	4384	7	2	3.9
O=C(CCN1C(=O)c2ccccc2C1=O)Nc1ccccn1	14	-4	-33	10520	15	6	7.4
COc1ccc(N2CCN(C(=O)c3ccncc3)CC2)cc1	1	4	-20	10750	6	13	-2.8
CCc1ccc(-c2cc(C)no2)cc1S(=O)(=O)NCCc1ccc(OC)c(OC)c1	2	-6	-13	5902	-3	6	2.1
CSCCC(NC=C1C(=O)OC(C)(C)OC1=O)C(=O)O (centres undefined)	5	2	-10	3457	6	6	-1.6
CCCCn1c(SCC(=O)NCc2ccco2)nnc1-c1ccco1	8	9	-11	8010	5	4	4.3
Cc1ccc(NC(=O)CN(c2ccccc2F)S(C)(=O)=O)cc1	6	2	-11	4954	3	11	7.2
CCc1ccccc1NC(=O)CNC(=O)CNC(=O)c1cccs1	7	.	-8	6422	-2	1	3.2
COc1cc(C=C2C(=O)NC(=O)N(c3ccccc3)C2=O)cc(OC)c1OC	-1	.	.	.	7	-9	3.6
COc1ccc(CN2C(=NC(=O)CCC3CCCC3)SC3CS(=O)(=O)CC32)cc1 (centres undefined)	4	-3	-11	4356	7	-2	1.8
C=CCn1c(SCC(=O)Nc2ccccc2OC)nc2c([nH]c3ccccc32)c1=O	-11	1	-3	5449	1	3	12
CCN1CCN(c2nc3c(C)cccn3c(=O)c2C=C(C#N)C#N)CC1	2	1	-5	3748	11	4	5.3
OCC[C@H]1C[C@H](O)[C@@H](O)[C@@]2(CCCO2)O1	-4	-5	-11	4015	6	1	-12
Cc1occc1C(=O)N(C)Cc1nc(-c2ccc(Cl)cc2)no1	2	-6	-1	2977	6	-4	3.4

# 14 structures out of the list, sorted by formula weight, smallest number first:
SMILES	ugtP null kill	BJeLR viability	PrP 5UTR inh	Bead autofluor	Mtb hypoxia rep	Mtb hypoxia rep growth	RN4220 kill
COc1ccc(N2CCN(C(=O)c3ccncc3)CC2)cc1	1	4	-20	10750	6	13	-2.8
CSCCC(NC=C1C(=O)OC(C)(C)OC1=O)C(=O)O (centres undefined)	5	2	-10	3457	6	6	-1.6
O=C1NC(=O)N(CCC2=CCCCC2)C(=O)/C1=C\c1cccs1	2	-2	-9	2519	3	4	1.6
Cc1occc1C(=O)N(C)Cc1nc(-c2ccc(Cl)cc2)no1	2	-6	-1	2977	6	-4	3.4
Cc1ccc(NC(=O)CN(c2ccccc2F)S(C)(=O)=O)cc1	6	2	-11	4954	3	11	7.2
CCc1ccccc1NC(=O)CNC(=O)CNC(=O)c1cccs1	7	.	-8	6422	-2	1	3.2
CCN1CCN(c2nc3c(C)cccn3c(=O)c2C=C(C#N)C#N)CC1	2	1	-5	3748	11	4	5.3
CCCCn1c(SCC(=O)NCc2ccco2)nnc1-c1ccco1	8	9	-11	8010	5	4	4.3
O=C(NCc1n[nH]c(=S)n1-c1ccc(Cl)c(Cl)c1)c1ccco1	-4	-12	1	4384	7	2	3.9
COc1cc(C=C2C(=O)NC(=O)N(c3ccccc3)C2=O)cc(OC)c1OC	-1	.	.	.	7	-9	3.6
C=CCn1c(SCC(=O)Nc2ccccc2OC)nc2c([nH]c3ccccc32)c1=O	-11	1	-3	5449	1	3	12
CCc1ccc(-c2cc(C)no2)cc1S(=O)(=O)NCCc1ccc(OC)c(OC)c1	2	-6	-13	5902	-3	6	2.1
COc1ccc(CN2C(=NC(=O)CCC3CCCC3)SC3CS(=O)(=O)CC32)cc1 (centres undefined)	4	-3	-11	4356	7	-2	1.8
Cc1cc(C)c(S(=O)(=O)N2CCCOC2CNC(=O)C(=O)NCc2ccccn2)c(C)c1 (centres undefined)	-4	0	-6	2601	-5	10	-0.7

# Next compounds
SMILES	ugtP null kill	BJeLR viability	PrP 5UTR inh	Bead autofluor	Mtb hypoxia rep	Mtb hypoxia rep growth	RN4220 kill
O=C(COC(=O)Cc1ccccc1[N+](=O)[O-])NCC1CCCCC1	2	12	-22	4555	2	1	2.8
CN1CCN(c2nc3ccccn3c(=O)c2C=C2C(=O)N(C)C(=O)N(C)C2=O)CC1	1	-5	-11	2495	9	11	1.9
O=C(COC(=O)c1ccc(Br)o1)NCCc1ccccc1	0	-6	-4	4522	7	8	1.7
O=C(CCNC(=O)c1ccc(Br)cc1)NNC(=O)C1COc2ccccc2O1 (centres undefined)	14	-11	-17	.	6	1	3.1
Nc1cc(Cl)ccc1C(=O)OCC(=O)NC1CCCCC1	3	0	-12	3912	11	5	3.0
N#Cc1ccc(C(=O)Nc2ccc(N3CCN(C(=O)c4ccco4)CC3)cc2)c(F)c1	-2	5	-1	24354*	12	4	1.7
C=CCSc1nnc2nc3[nH]c4c(C)cccc4c3nn12	-8	-3	-9	2459	.	.	2.3
Cc1sc2ncn(CC(=O)NCCCN3CCC(C)CC3)c(=O)c2c1S(=O)(=O)N1CCC(C)CC1	-1	-3	-12	4446	-1	-3	4.6
O=C1NC(=Nc2ccc(Cl)cc2)/C(=C/c2ccco2)S1	-7	4	-14	2577	1	-2	7.9
CCOC(=O)C1CCN(C(=O)CN2C(=O)C(CC)Oc3ccccc32)CC1 (centres undefined)	6	4	-16	9231	12	11	3.5
COc1ccc(CNC2CC(=O)N(C)C2=O)cc1 (centres undefined)	4	-14	-12	10345	12	7	0.5
O=C(Nc1nc2c(F)cc(F)cc2s1)C1CC(=O)N(Cc2ccco2)C1 (centres undefined)	3	-11	-6	4650	7	6	6.6

# The last three entries of the part before are carried over, then new ones follow.
SMILES	ugtP null kill	BJeLR viability	PrP 5UTR inh	Bead autofluor	Mtb hypoxia rep	Mtb hypoxia rep growth	RN4220 kill
CCOC(=O)C1CCN(C(=O)CN2C(=O)C(CC)Oc3ccccc32)CC1 (centres undefined)	6	4	-16	9231	12	11	3.5
COc1ccc(CNC2CC(=O)N(C)C2=O)cc1 (centres undefined)	4	-14	-12	10345	12	7	0.5
O=C(Nc1nc2c(F)cc(F)cc2s1)C1CC(=O)N(Cc2ccco2)C1 (centres undefined)	3	-11	-6	4650	7	6	6.6
COc1ccc(C)cc1NC(=O)C(OC(=O)c1cc(C)oc1C)c1ccccc1 (centres undefined)	9	-2	-18	2105	4	1	-2.4
Cn1c(CN2CCOCC2)nnc1SCC(=O)Nc1nccs1	7	2	-11	8299	3	5	1.5
CC(C)(C)C(=O)NC1(C(F)(F)F)N=C2SCCN2C1=O (centres undefined)	6	9	-24	3282	3	6	6.1
CC1CCCCC12NC(=O)N(CC(=O)NC(=O)Nc1ccc3c(c1)OCCO3)C2=O (centres undefined)	-8	-1	-66	4636	.	.	-0.6
COc1cc(S(=O)(=O)N2CCCCC2)c(OC)cc1Br	19	5	5	3290	5	-2	6.0
O=C(COc1ccc(Cl)cc1Cl)Nc1ccc(S(=O)(=O)NC2=NCCCCC2)cc1	6	14	1	2266	1	-4	-6.1
COc1ccc(CN(C)C(=O)Cn2cnc(C(=O)Nc3ccc(C)c(C)c3)n2)cc1OC	0	.	-9	3950	-3	2	-0.2
Brc1ccccc1-n1nnc(-c2nccs2)n1	4	-10	-50	2940	16	11	7.1
Fc1ccc(CN2CCCCCC2)c(F)c1	1	.	-18	22437*	2	1	2.8
O=C(N/N=C/c1ccc([N+](=O)[O-])s1)c1cccc(Br)c1	.	2	15	3850	.	.	.
O=S(=O)(CC(c1ccccc1)N1CCCCC1)c1ccc(Cl)cc1 (centres undefined)	-2	0	-9	.	6	23	1.5
Nc1nnc(CSCc2ccc(Cl)cc2)s1	2	-9	-30	2548	4	5	3.3
c1ccc2nc(N3CCOCC3)c(N3CCOCC3)nc2c1	1	-1	-12	4299	.	.	0.9
O=C(NC(=S)Nc1ccc2c(c1)OCCO2)c1ccco1	7	-3	-93	4030	13	2	3.7
COc1ccc(OCc2nnc(SCC(=O)NC3CC3)n2C)cc1	12	4	-4	4242	7	-6	5.1
COc1ccc(N2C(=O)/C(=C\c3ccco3)N=C2SCC(=O)N(C(C)C)C(C)C)cc1Cl	13	-9	-16	9305	-2	2	3.5
CC(=O)c1ccc(NC(=O)CN2C(=O)COc3ccc(S(=O)(=O)N4CCCC4)cc32)cc1	10	-2	-4	5607	4	3	6.4
O=C(NN=Cc1ccc(-c2ccccc2[N+](=O)[O-])o1)c1cncc(Br)c1	9	.	.	.	6	8	-0.1
Cc1ccc(C(=O)NC2CCCC(C)C2C)cc1S(=O)(=O)N1CCCCC1 (centres undefined)	12	-8	-30	6910	2	-7	-2.6
COc1cc2cnc(Cl)nc2cc1OC	15	-6	-13	1952	7	3	3.4
OC1CCN(C(=S)NCCc2ccccc2)CC1	6	15	-8	3498	.	.	1.0
Cc1nccn1CCN(C)Cc1cn(Cc2ccccc2)nc1-c1ccc2c(c1)OCO2	8	4	-21	4436	10	-2	-1.2
COc1cccc(Nc2nnc(SCC(=O)N3CC(C)OC(C)C3)s2)c1 (centres undefined)	0	5	-17	9051	2	7	3.7
CCc1cc(=O)[nH]c(SCC(=O)NCC2CCCO2)n1 (centres undefined)	4	-4	-16	?	2	-2	0.4
C=C(C)C1CC=C(C)C(=NNc2ccccc2[N+](=O)[O-])C1 (centres undefined)	20	.	.	.	11	4	-5.8
O=C(C1CCC(=O)N1Cc1ccc(F)cc1)N1CCC2(CC1)OCCO2 (centres undefined)	-4	3	-9	2815	6	0	3.8
O=c1[nH]c2ccc(Cl)cc2c(-c2ccccc2)c1SC(=S)N1CCCCC1	-22	-14	-22	2953	7	8	-7.9
CC(C(=O)c1ccc(-c2ccccc2)cc1)[n+]1cccc(C(N)=O)c1 (centres undefined)	-6	-2	-15	4109	-5	9	-3.1
CNC(=O)COc1ncnc2scc(-c3ccc(F)cc3)c12	5	0	1	4809	8	7	1.7
N#Cc1ccc(CSc2nnc(NC(=O)CCc3nc4ccccc4c(=O)[nH]3)s2)cc1	3	3	-6	9022	-2	-7	3.2

# Screens as filed in PubChem.

# Hits appear at their usual frequency; 4% or so of the library scored in one or more.
